nsP2pro primary: CHIKV nsP2 protease inhibition, primary qHTS. Q8JUX6. FRET peptide cleavage, nsP2pro, fluorescence 1 h. Potency, µM (top dose mostly 24.9 µM), without a hit: top-dose activity change, negative = inhibition, hits mostly inhibitors. actives 1.1% (n = 31,000). AID 1964107; active means well fitted inhibition curve with a large enough effect; inconclusive means small, poorly fitted or top-dose-only effect; inactive means no such curve, though single readings can be large or run the other way; note: nearly all actives have a fitted effect of over 60% in size; a reference inhibitor and vehicle were the controls
The depositor's hits bear a star; i = inactive; ? = inconclusive; & = joins results of further samples; [ ] = remark or other dose. % is set by controls: 0 for no effect and ±100 for the full control effect; potency is the fitted concentration of half-maximal effect.

entry	Compound	nsP2pro primary
1	CCC(C)NC(=O)c1sc2nc3n(c(=O)c2c1C)CCC3 (configuration not stated)	-16.4%
2	CC(C)=CCC/C(C)=C/CC/C(C)=C/CC[C@]1(C)CCc2cc(O)cc(C)c2O1	-4.1%[10 µM]
3	COC(=O)c1cnc(N2CCN(c3ccc(F)cc3)CC2)c2ccccc12	-22.2%
4	O=C(O)CSCC(=O)NC1CCSC1=O (configuration not stated)	5.6%
5	CC(=O)OC1[C@H]2[C@@H](C[C@@H](C)[C@@H]3C=CC(=O)[C@@]13C)OC(=O)[C@@H]2C (some centres not stated)	13.6%
6	COc1ccccc1CCNc1ncnc2c1nnn2C	-16.0%
7	O=c1ccc(-c2ccccc2)nn1Cc1c(F)cccc1Cl	-14.0%
8	COc1ccccc1-c1nc(-c2ccc(Br)o2)no1	?
9	CC1CCCCN1CCCNC(=O)c1cc2c(s1)CN(C1CCCC1)C2 (configuration not stated)	4.6%
10	Cc1ccc(Cn2cc3c(n2)-c2c(oc(C(=O)Nc4ccc(F)cc4F)c2C)CC3)cc1	-21.0%
11	Cc1c(P(=S)(c2ccccc2)c2ccccc2)c2ccccc2n1Cc1ccccc1	i
12	O=S(=O)(NCc1ccccc1)c1ccc2[nH]c3c(c2c1)CCCCC3	-31.2%
13	CCn1nc(-c2cccc(-c3ccnn3C)c2)nc1N(C)C	-7.5%
14	Cc1ccc(Cl)cc1NC(=O)c1ccc(-c2nc(CSc3ccccc3)c(C)o2)cc1	-11.3%
15	COCC(=O)N(C)Cc1ccc(F)cc1	-5.3%[39.2 µM]
16	COc1ccc(NCc2ccc(O)c3ncccc23)nc1	?

Down the list, quoted from above:
Compounds 10–15 in nsP2pro primary read -21.0%, i, -31.2%, -7.5%, -11.3%, -5.3%[39.2 µM]

(further entries)
entry	Compound	nsP2pro primary
17	Cc1ccc(CSC2=Nc3ccccc3C3=NC(CCC(=O)NCc4cccs4)C(=O)N23)c(C)c1 (configuration not stated)	-8.9%
18	CN1C(=O)C(c2ccccc2)CC12CCN(c1ccnc(N)n1)CC2 (configuration not stated)	i
19	C[C@]1(O)CC[C@@H]2C(C(=O)O)=CO[C@@H](O[C@@H]3O[C@H](COC(=O)c4ccc(O)cc4)[C@@H](O)[C@H](O)[C@H]3O)[C@@H]21	39.8%[10 µM]
20	Cc1cc(CCCOc2c(C)cc(-c3noc(C(F)(F)F)n3)cc2C)on1	?
21	Cc1nc(N2CCC(C(=O)NCC3CCCO3)CC2)cc(C(F)(F)F)n1 (configuration not stated)	i
22	COc1ccc(-c2cc3nc(C)c(CCC(=O)NC4CCCCC4)c(C)n3n2)c(OC)c1	-11.9%
23	COC(=O)C(Cc1ccccc1)NC(=O)c1ccccc1 (configuration not stated)	-9.1%
24	CC1(C)CC(=O)C2=C(C1)NC(Nc1nc3ccccc3o1)=NC21CCCC1	-4.7%
25	Cc1ccc(C(=O)Nc2ccc(CN3CCN(C)CC3)c(C(F)(F)F)c2)cc1C#Cc1cnc2cccnn12	135.7%[activator]
26	COc1ccccc1CNC(=O)CCCn1c(=O)c2ccccc2n(Cc2ccccc2C#N)c1=O	-16.4%
27	O=C(/C=C/c1ccc(Cl)cc1)Nc1nc(-c2cccs2)ns1	5.5%
28	Cc1cc(/C=C/C#N)cc(C)c1Nc1ccnc(Nc2ccc(C#N)cc2)n1	-7.3%&21.3%
29	CCOC(=O)CC(NC(=O)c1cc2cc(Br)cc(OC)c2oc1=O)c1ccc(OC)cc1 (configuration not stated)	-13.9%
30	CC/C=C(\C(=O)N[C@H]1C(=O)N2C(C(=O)OCOC(=O)C(C)(C)C)=C(COC(N)=O)CS[C@H]12)c1csc(N)n1	?
31	O=C(NCCCN1CCNCC1)c1cccc(-c2cc(O)c3ncccc3c2)c1	i
32	Cn1cnc(S(=O)(=O)N2CCC(C(=O)NCc3ccccc3Cl)CC2)c1	-18.0%
33	C[C@@H]1O[C@@H](O[C@H]2[C@H](OC(=O)[C@]34CCC(C)(C)C[C@H]3C3=CCC5[C@@]6(C)C[C@H](O)[C@H](O[C@@H]7O[C@H](CO)[C@@H](O[C@@H]8O[C@H](CO)[C@@H](O)[C@H](O)[C@H]8O)[C@H](O)[C@H]7O)[C@@](C)(CO)C6[C@H](O)C[C@@]5(C)[C@]3(C)C[C@H]4O)OC[C@H](O)[C@@H]2O)[C@H](O)[C@H](O)[C@H]1O[C@@H]1OC[C@@H](O)[C@H](O[C@@H]2OC[C@](O)(CO)[C@H]2O)[C@H]1O (some centres not stated)	86.4%[activator][5.1 µM]
34	COC(=O)c1c(NC(=O)CCCOc2ccc(C)cc2)sc2c1CCCC2	-34.2%
35	N#Cc1ccccc1CSc1nnc2ccc3ccccc3n12	-6.1%
36	COc1ccc(CNC(=O)c2ccc(CN3C(=O)NC4(CCOCC4)C3=O)cc2)cc1	-5.4%
37	O=C(Cn1c(=O)oc2cc(S(=O)(=O)N3CCCC3)ccc21)NCc1ccc(Cl)cc1	-15.9%
38	C/C=C1/CC2C(=O)Nc3cc(O)c(OC)cc3C(=O)N2C1 (configuration not stated)	?
39	Cc1[nH]c2ccccc2c1CCNC(=O)c1cccs1	-22.5%
40	COc1ccc(C2(O)CCC(N3CC[C@@H](NC(=O)CNC(=O)c4cccc(C(F)(F)F)c4)C3)CC2)cn1 (some centres not stated)	73.6%[activator]

Quoted at random: four compounds from above.
entry	Compound	nsP2pro primary
37	O=C(Cn1c(=O)oc2cc(S(=O)(=O)N3CCCC3)ccc21)NCc1ccc(Cl)cc1	-15.9%
36	COc1ccc(CNC(=O)c2ccc(CN3C(=O)NC4(CCOCC4)C3=O)cc2)cc1	-5.4%
33	C[C@@H]1O[C@@H](O[C@H]2[C@H](OC(=O)[C@]34CCC(C)(C)C[C@H]3C3=CCC5[C@@]6(C)C[C@H](O)[C@H](O[C@@H]7O[C@H](CO)[C@@H](O[C@@H]8O[C@H](CO)[C@@H](O)[C@H](O)[C@H]8O)[C@H](O)[C@H]7O)[C@@](C)(CO)C6[C@H](O)C[C@@]5(C)[C@]3(C)C[C@H]4O)OC[C@H](O)[C@@H]2O)[C@H](O)[C@H](O)[C@H]1O[C@@H]1OC[C@@H](O)[C@H](O[C@@H]2OC[C@](O)(CO)[C@H]2O)[C@H]1O (some centres not stated)	86.4%[activator][5.1 µM]
34	COC(=O)c1c(NC(=O)CCCOc2ccc(C)cc2)sc2c1CCCC2	-34.2%

Continued:
entry	Compound	nsP2pro primary
41	CC(=O)Nc1sc2c(c1-c1nc3ccccc3s1)CCN(C1COC1)C2	-15.8%
42	COCCn1c(C)cc(C(=O)NC2CCc3nnc(C4CC4)n3CC2)c1C (configuration not stated)	i
43	CC(C)(C)c1ccc(C(=O)NC(Cc2c[nH]c3ccccc23)C(=O)OCC(=O)c2ccc(Br)cc2)cc1 (configuration not stated)	-7.0%
44	CC(C)n1cnc2c(NCc3cccc(C(F)(F)F)c3)ncnc21	31.0%
45	O=S(=O)(Cc1ccccc1)N1CCC(n2cnnc2C2CC2)CC1	-0.9%
46	CN1C(=O)CC(C(=O)O)C12CCN(Cc1nc3ccsc3c(=O)[nH]1)CC2 (configuration not stated)	-7.2%
47	CCCCS(=O)(=O)N1CCCC2(C1)Nc1cccnc1NC2=NCc1ccccc1 (configuration not stated)	i
48	O=C(N[C@@H]1COCC[C@@H]1OCC1CC1)c1cc(-n2cccn2)ccc1Cl	i
49	CCc1nnc(NC(=O)CSCc2cc(=O)c3ccc(C)cc3[nH]2)s1	-13.0%
50	CN1CCN(S(=O)(=O)c2ccc(-c3cnc(N)c(C(=O)Nc4cccnc4)n3)cc2)CC1	8.2%[10 µM]
51	CC(C)[C@H]1CC[C@H](C)C[C@H]1O	0.9%
52	COc1cc(Cn2ncc3c4sc(C)cc4n(C)c3c2=O)cc(OC)c1	4.8%
53	CCOc1ccccc1CNC(=O)CN1C(=O)CCc2cc(S(=O)(=O)N3CCCCC3)ccc21	-19.3%
54	CCOC(=O)C1CCCN(C(=O)C2CCN(S(=O)(=O)c3c(C)noc3/C=C/c3ccccc3F)CC2)C1 (configuration not stated)	-4.1%
55	CCOc1ccc(CCNS(=O)(=O)c2c(C)nc3sc(C)cn3c2=O)cc1OCC	-12.4%
56	CC(C)Oc1ccc(CNC(=O)c2cc3ccccn3n2)cc1	-14.6%
57	CCOC(=O)N1CCN(C(=O)CN(c2cccc(Cl)c2)S(=O)(=O)c2ccccc2)CC1	-25.3%
58	COc1ccc(C2Nc3ccccc3C(=O)N2Cc2ccccn2)cc1COc1ccc(NC(C)=O)cc1 (configuration not stated)	-15.3%
59	Cc1cc(OCC(O)CN2CCN(c3cccc(Cl)c3)CC2)ccc1Cl (configuration not stated)	11.2µM*
60	CC(=O)Nc1cccc(-c2ccnc(-c3nnc(C)n3Cc3ccccc3)c2)c1	i
61	OCc1ccccc1O[C@@H]1O[C@H](CO)[C@@H](O)[C@H](O)[C@H]1O	-9.5%
62	COc1ccc(CNC(=O)C2CCN(S(=O)(=O)c3ccc4nc5c(c(C(=O)O)c4c3)CC(C)CC5)CC2)cc1 (configuration not stated)	-28.5%
63	CC1OC(O[C@H]2CC[C@@]3(C)C(CC[C@]4(C)C3CC=C3C5CC(C)(C)CC[C@]5(C(=O)OC5OC(CO)C(OC6OCC(OC7OCC(O)C(O)C7O)C(O)C6O)C(O)C5O)CC[C@]34C)C2(C)C)C(O)C(O)C1OC1OC(CO)C(O)C(OC2OC(CO)C(O)C(O)C2O)C1O (some centres not stated)	6.5%[5.1 µM]
64	COc1ccccc1-c1nc2n(n1)C(c1ccccc1Cl)C(C(=O)Nc1cccnc1)=C(C)N2 (configuration not stated)	-12.4%
65	O=C(C1CCCN(c2cnn(Cc3ccccc3)c(=O)c2)C1)N1CCCN(c2ncccn2)CC1 (configuration not stated)	-2.2%
66	CC[C@]1(O)CC[C@H]2[C@@H]3CCC4=CCCC[C@@H]4[C@H]3CC[C@@]21C	5.7%
67	COc1ccc(F)cc1NC(=O)C1CCN(c2nc(-c3ccc(OC)c(OC)c3)no2)CC1	7.6%
68	CC(NC(=O)c1c2c(nc3ccccc13)C(=O)N(C1CCCCC1)C2)c1ccccc1 (configuration not stated)	-11.9%
69	CN1C(=O)[C@H]2CN(Cc3cn[nH]c3-c3ccc(F)cc3)C[C@H]2C1=O	-1.9%
70	CCCCCCCCCCCCCCCCOCCCOP(=O)(O)COC(CO)Cn1ccc(N)nc1=O (configuration not stated)	i
71	C[N@+]12CCCC[C@@H]1CCC(=C(c1cccs1)c1cccs1)C2	-7.3%
72	COc1ccc2c(c1)CCc1c(C(=O)Nc3cnn(Cc4ccc(Cl)cc4Cl)c3)noc1-2	-6.6%

The last two compounds of the part above lead into the next:
entry	Compound	nsP2pro primary
71	C[N@+]12CCCC[C@@H]1CCC(=C(c1cccs1)c1cccs1)C2	-7.3%
72	COc1ccc2c(c1)CCc1c(C(=O)Nc3cnn(Cc4ccc(Cl)cc4Cl)c3)noc1-2	-6.6%
73	COc1c(C)cnc(Cn2cnc3c(Cl)nc(N)nc32)c1C	?
74	Cc1ccc(CN2CCCc3nc(C)nc(-c4ccc(O)cc4)c3C2)cc1	i
75	C[N+](C)(C)CCOP(=O)([O-])OP(=O)(O)OC[C@H]1OC(n2ccc(N)nc2=O)[C@H](O)[C@@H]1O (some centres not stated)	-2.1%[0.199 µM]
76	COc1ccc(OC)c(C2c3c(oc4ccc(C)cc4c3=O)C(=O)N2CCCN(C)C)c1 (configuration not stated)	-7.1%
77	CO/N=C1\CN(c2nc3c(cc2F)c(=O)c(C(=O)O)cn3C2CC2)CC1CN (configuration not stated)	?
78	CCn1c2c(c(=O)n1Cc1ccccc1)CCN(C(=O)c1ccc(Oc3ccccc3)cc1)C2	4.8%
79	COc1ccc(N2CCN(Cc3nc4c(c(=O)n(C)c(=O)n4C)n3C(C)C)CC2)cc1	-18.3%
80	CC1CCc2c(sc(NC(=O)COc3ccccc3)c2C(=O)Nc2ccccc2Cl)C1 (configuration not stated)	-2.9%
81	CCCCN(C)C(=O)Cn1nc(-c2ccc(OC)cc2)ccc1=O	-3.6%
82	COc1ccccc1N1CCN(C(=O)C2CCCN(S(=O)(=O)c3ccc4c(c3)oc(=O)n4C)C2)CC1 (configuration not stated)	-21.8%
83	CCCN(CCC)C(=O)C(CCC(=O)OCCCN1CCN(CCOC(=O)Cc2c(C)n(C(=O)c3ccc(Cl)cc3)c3ccc(OC)cc23)CC1)NC(=O)c1ccccc1 (configuration not stated)	0.7%
84	COc1ccc(CCC(=O)NCc2nc3cccnc3n2Cc2cccc(OC)c2)cc1	-20.9%
85	Cc1ccc(NC(=O)c2ccc3c(c2)CCC(=O)N3)cc1C	i
86	CCCC1=Nc2cc(C(=O)NCCc3ccc(OC)cc3OC)ccc2Sc2ccccc21	-10.4%
87	Cc1ccc2ncc(C(=O)NCCc3ccc(S(N)(=O)=O)cc3)c(=O)n2c1	0.0%
88	O=C(CSc1ncc2c(n1)-c1ccccc1N(Cc1ccc(F)cc1)S2(=O)=O)c1ccc(Cl)cc1	-13.6%
89	CCCCC1(CCCC)CN(c2ccccc2)c2cc(SC)c(OCC(=O)N[C@@H](C(=O)N[C@@H](CC)C(=O)O)c3ccc(O)cc3)cc2S(=O)(=O)N1	196.0%[activator]
90	COc1ccc(NC(=O)CCCSc2nc(-c3ccco3)cc(C(F)(F)F)n2)c(OC)c1	-7.7%
91	O=S(=O)(NC[C@H]1O[C@@H](CO)[C@@H](O)[C@H]1N1CCOCC1)c1ccc(Cl)cc1	-7.2%
92	CCN(C(=O)C(NS(=O)(=O)c1ccc(Br)s1)c1ccccc1)c1ccc(C)c(C)c1 (configuration not stated)	-14.8%
93	CCCN1CCO[C@H]2c3cc(O)ccc3OC[C@@H]21	?
94	CN1CCC[C@H]1c1nc(-c2ccc(F)cn2)no1	2.9%[39.2 µM]
95	COc1ccccc1C(=O)Nc1ccc(C(=O)OCc2cc(=O)n3nc(C4CC4)sc3n2)cc1	-20.5%
96	CCN(C(=O)c1cccc(F)c1F)[C@@H]1CCN(c2ncccc2C#N)C[C@H]1O	2.1%
97	O=C1C2=C(Nc3ccccc3SC2c2ccccc2C(F)(F)F)c2ccccc21 (configuration not stated)	41.9%[activator]
98	Cc1c(-c2cccc(NC(=O)Nc3ccc(Cl)cc3)c2)nc2ncccn12	-11.8%
99	COc1ccccc1CNC(=O)c1ccc2c(c1)N(Cc1cccc(C)c1)C(=O)c1ccccc1S2(=O)=O	-21.9%

A portion of the library, so the mix of outcomes need not match the whole.
